# Screening results as filed in PubChem BioAssay.
# T cruzi repl = T. cruzi replication inhibition | inhibition, % (test concentration not listed) | AID 1885 | 1.4% of 300,000 active | T. cruzi beta-gal in NIH3T3, luminescence, 90 h;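 active = mean inhibition across valid replicates above about 55%, limit read from the data; inconclusive = mean below that limit but half or more replicates reach it; inactive = mean below it, under half of replicates reach it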;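 also: signal also drops with host cell toxicity which is not excluded here; 0% = plate median of DMSO wells and 100% = zero luminescence signal; higher percent means less beta-gal luminescence so fewer parasites; stock transfer was 50 nL into about 50 µL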
# RanGTP-Impb inh = disruptors of Ran-importin-beta complex formation – biochemical, FRET, CFP-Ran, YFP-importin-beta, homogeneous, primary screen. 1.1% of 300,000 active. cell-free CFP-Ran/YFP-importin-beta FRET ratio. inhibition, % (test concentration not listed). AID 2216;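 active = most replicates above 15%; inconclusive = exactly half above 15%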;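 also: 0% = DMSO wells and 100% = Ran loaded with GDP instead of GTP; wells of about 40 µL received 100 nL stock; the first replicate is given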
# Ecoli rRNA inh = inhibits bacterial ribosomal RNA function over humanized ribosomes | GFP signal change (wild-type ribosome), % (test concentration not listed) | E. coli WT GFP vs humanized-ribosome RFP mutants, fluorescence, 24 h; active compounds read low; DMSO median 0, no signal -100 | AID 720706 | 1.6% of 350,000 active;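 active = significant combined selectivity score with lowered wild-type GFP, culture density cut under 30%, mutant RFP and density less affected; inactive = any of these conditions unmet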; also: one replicate is shown; some compounds called inactive have numbers as strong as hits
# ALR inh = blocks human ALR sulfhydryl oxidase activity | purified ALR, DTT oxidation, H2O2 HRP-luminol luminescence | inhibition, % (test concentration not listed) | 3.8% of 290,000 active | AID 485317;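 active = mean and each replicate at 75% or more; inconclusive = only one of the two met; inactive = neither met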;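 also: stock transfer was 7.5 nL into about 7.5 µL; 0% = neutral wells and 100% = wells with inactivated enzyme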
# Target sequence (P55789 whole entry, looked up): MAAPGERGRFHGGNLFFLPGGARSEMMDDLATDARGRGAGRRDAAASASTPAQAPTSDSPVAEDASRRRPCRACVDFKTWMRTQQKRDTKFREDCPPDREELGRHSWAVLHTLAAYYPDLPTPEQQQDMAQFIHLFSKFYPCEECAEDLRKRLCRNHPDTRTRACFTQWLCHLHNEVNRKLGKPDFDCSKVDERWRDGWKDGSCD
# MLL AF4-AF9 inh = inhibitors of human MLL-AF4/AF9 interaction | 0.47% of 350,000 active | P42568 | inhibition, % at 10 µM | AlphaScreen, biotin-AF4 peptide binding to FLAG-AF9;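 active = every replicate reaching a set inhibition limit, whatever the replicate mean, cut at about 25% in these data; inconclusive = mean inhibition reaches that limit but some replicates miss it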;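 also: 0% = plate neutral control median and 100% = total signal loss; the record names both 10 and 1 µM as test concentration; the first replicate is given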
# Target sequence (P42568 whole entry, looked up): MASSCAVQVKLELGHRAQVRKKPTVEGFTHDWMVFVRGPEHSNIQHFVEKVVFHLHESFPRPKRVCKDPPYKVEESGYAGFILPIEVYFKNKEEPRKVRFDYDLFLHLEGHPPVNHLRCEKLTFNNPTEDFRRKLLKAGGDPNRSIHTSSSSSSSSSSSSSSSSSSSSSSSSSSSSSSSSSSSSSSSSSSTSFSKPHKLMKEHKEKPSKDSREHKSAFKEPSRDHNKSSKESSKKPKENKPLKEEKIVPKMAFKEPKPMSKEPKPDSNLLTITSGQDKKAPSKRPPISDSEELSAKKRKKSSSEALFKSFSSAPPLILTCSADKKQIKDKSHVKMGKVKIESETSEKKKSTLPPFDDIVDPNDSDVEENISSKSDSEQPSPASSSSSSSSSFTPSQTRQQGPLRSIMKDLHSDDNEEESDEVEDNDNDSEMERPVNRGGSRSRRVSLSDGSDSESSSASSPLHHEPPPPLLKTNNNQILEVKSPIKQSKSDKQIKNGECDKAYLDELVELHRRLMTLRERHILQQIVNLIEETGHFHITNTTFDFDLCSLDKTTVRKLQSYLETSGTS
# Calb FLC = affects C. albicans growth with fluconazole | C. albicans CaCi-2 (fluconazole-resistant clinical isolate) + fluconazole, Alamar Blue growth, 48 h | growth inhibition, % (no concentration beside the values) | 0.57% of 300,000 active;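 active = most replicates above 75%; inconclusive = exactly half above 75%; inactive = most below 75%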;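 also: all wells also contain fluconazole at 8 µg/ml as a sub-toxic cotreatment; 0% = median of DMSO wells and 100% = median of geldanamycin control wells; wells of about 8 µL received 7.5 nL stock; the first replicate is given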
# Beta apoptosis = beta cell apoptosis inhibition; INS-1E cytokine-induced death, ATP luminescence, 48 h; percent of positive-control rescue, neutral wells zero; protection from apoptosis, % (no concentration beside the values); 0.8% of 300,000 active;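 active = all replicates at 75% or more, or half of them and the mean; inconclusive = half reach 75% but not the mean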;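 also: 0% = cytokine-treated negative control wells and 100% = positive control rescue; higher means more ATP so stronger rescue from cytokine killing; wells of about 40 µL received 100 nL stock; the first replicate is given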
# FGF22 binding = FGF22 (human) thermal shift binding; 1.5% of 340,000 active; recombinant FGF22 thermal shift, SYPRO orange fluorescence; percent of sucrose octasulfate shift, DMSO zero; calls only at 9.99 µM;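 active = melting point raised past a set limit in the mean and every replicate; inconclusive = no clear call; three in four hits are not shown here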
# Target sequence (Q9HCT0 whole entry, looked up): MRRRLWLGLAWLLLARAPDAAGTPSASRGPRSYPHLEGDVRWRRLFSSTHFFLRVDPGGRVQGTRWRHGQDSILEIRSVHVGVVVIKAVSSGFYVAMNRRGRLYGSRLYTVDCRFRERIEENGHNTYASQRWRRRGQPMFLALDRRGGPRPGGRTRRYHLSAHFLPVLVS
# Ecoli rRNA inh OD600 = also measured in Ecoli rRNA inh; calls as there; OD600 change, %; measured here: OD600 growth;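 optical density of the mix in the first replicate; 0 = DMSO median and -100 = no signal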
# Ecoli rRNA inh RFP = recorded beside Ecoli rRNA inh, whose call it bears; RFP signal change, %; measured here: RFP humanized mutant strains;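 first replicate; 0 = DMSO median and -100 = no signal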
# The depositor's hits bear a star; i = inactive; u = inconclusive; x = no result given; & = joins results of further samples. The list is partial; the hit share may differ from the screen's.
SMILES,T cruzi repl,RanGTP-Impb inh,Ecoli rRNA inh,Ecoli rRNA inh OD600,Ecoli rRNA inh RFP,ALR inh,MLL AF4-AF9 inh,Calb FLC,Beta apoptosis,FGF22 binding
CC1C(=O)Nc2ccccc2N1C(=O)c1ccc(Cl)c(Cl)c1 (stereo not drawn),6,-0.1,-27*,-19*,-3.3*,x,1.2,11,6,i
O=C(OCc1nc2ccccc2s1)C1CCN(C2=NS(=O)(=O)c3ccccc32)CC1,-4,-1.2,x,x,x,-8,x,-9,-5,x
CCCN(CCC)CCCNC(=O)C1CCC(CNS(=O)(=O)c2cccc3nsnc23)CC1 (stereo not drawn),6,3.6,x,x,x,-2,x,-2,-5,x
COC(=O)C1CC23C=CCN4CCC5(c6ccccc6NC15C2C)C43 (stereo not drawn),21,4.1,10,18,1.4,-4,16,-13,7,i
COc1ccc(CCNC(=O)COc2ncnc3ccccc23)cc1,-7,0.0,-15,-6,2.6,-5,-1.9,20,-5,i
Cc1ccc(-c2c(C(=O)N/N=C/c3ccc4c(c3)OCO4)nnn2-c2nonc2N)cc1,6,23*,2,-4,4.9,3,0.2,1,-3,i
Cc1ccc(NC(=O)CCCCCN2C(=O)[C@@H]3Cc4ccccc4CN3C2=O)c(Cl)c1,6,4.7,-3,-32,0.5,2,-6.8,17,-3,i
COc1ccc(CNC(=O)Cn2cc(C(F)(F)F)ccc2=O)cc1,0,2.8,x,x,x,-2,x,1,-1,x
Cc1cccc2cc(CN(Cc3ccco3)C(c3nnnn3CCc3ccccc3)C(C)C)c(=O)[nH]c12 (stereo not drawn),42,6.2,x,x,x,-7,x,12,10,x
Cc1ccc(C)c(NC(=O)CSc2ncnc3nc[nH]c23)c1,-12,-0.7,7,3,-7.7,1,-6.6,5,-4,i
CCN(C(=O)CSc1ccc(S(=O)(=O)N2CCOCC2)cn1)c1ccccc1,x,x,1,-2,1.7,x,2.2,x,0,i
COc1cccc(CN2CC(C(=O)NCCc3ccccc3C(F)(F)F)CCC2=O)c1 (stereo not drawn),7,-0.5,1,10,-2.8,-3,0.6,-10,-1,i
CCC1(C(=O)OC)NC(c2ccco2)C2C(=O)N(c3ccc(F)cc3)C(=O)C21 (stereo not drawn),-14,-0.8,17,15,3.7,-12,-0.4,-4,0,i
CC(=O)Nc1ccc(NC(=O)c2cccc(Oc3ccccc3)c2)cc1,2,4.1,3,7,-1.0,x,-1.2,6,1,i
Cc1cc(C(=O)N/N=C/c2cn(C)nc2C)c2ccccc2n1,-20,-1.1,11,9,-2.6,-3,7.7,-1,-7,i
O=C(Cn1ncn2c(cc3ccccc32)c1=O)NCc1ccco1,12,4.8,13,3,-2.0,7,5.1,-9,0,i
O=C(Cn1cnc([N+](=O)[O-])c1)c1ccc(F)cc1,-15,1.4,4,5,11,-9,1.7,0,-3,i
Cc1cc(C)n(-c2nc3nonc3nc2Nc2cccc(C)c2C)n1,8,-3.6,x,x,x,-4,x,-3,-2,x
Clc1ccc(-c2nc3ccccc3[nH]2)cn1,-19,1.4,-20,5,13,17,1.4,-30,15,i
O=C(CNCc1cccc(Cl)c1)N1CCc2ccccc2C1,-1,1.8,-10,-5,1.5,x,1.5,-8,-4,i
CCN(CC)S(=O)(=O)c1ccc(OC)c(N)c1,-22,-2.3,16,15,-1.8,8,0.6,-1,-1,i
Cc1nc2sccn2c(=O)c1CCN1CCC(=C(c2ccc(F)cc2)c2ccc(F)cc2)CC1,41,-0.1,x,x,x,-20,-1.7&8.2,x,-2,i
COc1ccccc1Nc1nnc(SCC2CCCCO2)s1 (stereo not drawn),7,-1.9,-24,-29,-9.2,6,0.7,-6,4,i
N#CC(C#N)=C(Nc1ccc(F)cc1)SCc1cccc(Br)c1,-53,3.6,x,x,x,x,3.5,u,105*,i
CCC(=O)Nc1sc2c(c1C#N)CCC2,-2,-0.1,4,8,-8.9,14,-0.6,1,-3,i
CCN(C(=O)c1ccccc1)c1ccc([N+](=O)[O-])cc1,-1,-0.6,x,x,x,-6,x,31,-16,x
CNC(=O)c1c(NC(=O)c2ccc(N3C(=O)CCC3=O)cc2)sc2c1CCC(C)C2 (stereo not drawn),-4,-0.9,15,14,3.2,59,0.8,16,0,i
O=C(CN1CCN(c2ccc(O)cc2)CC1)Nc1cc([N+](=O)[O-])ccc1Cl,14,-1.8,9,11,-1.4,99*,-1.0,-2,-2,i
COc1ccc(OCc2cc(C(=O)NCCc3ccccc3)no2)c(Cl)c1,7,1.3,-3,-14,3.2,-8,-1.4,3,12,i
c1coc(-c2nnc(NC3=NCCC3)o2)c1,-8,-2.2,x,x,x,-4,x,-2,-7,x
COc1ccccc1N(C(=O)c1cncc(Br)c1)c1nc(-c2ccc(C)cc2)cs1,46,2.4,4,-2,0.0,-4,-2.7,1,5,i
COc1cc(/C=N/NC(=O)c2cncc(Br)c2)cc([N+](=O)[O-])c1O,-5,-7.5,-13,-14,17,7,10,35,-3,i
CN=C(Nc1cc(C)nn1CCC#N)c1ccccc1F,-10,7.4,12,10,-2.0,-4,-20,-18,7,i
COc1ccc(/C(O)=C2/C(=O)C(=O)N(CCCN(C)C)C2c2cccc(Cl)c2)cc1OC (stereo not drawn),-13,-2.8,x,x,x,x,x,3,-10,x
O=C(CN1CCCN(S(=O)(=O)c2ccc(Br)s2)CC1)Nc1ccc(Cl)cc1,31,6.0,x,x,x,91*,x,1,-10,x
Cc1nc2scc(-c3cccs3)c2c(=O)n1-n1cccc1,2,-3.2,x,x,x,-3,x,-4,x,x
COc1cc(OC)c2c(c1)C(=O)c1cc(OC)cc(OC)c1C2=O,-1,1.2,x,x,x,-3,x,-7,-6,x
CCOC(=O)N1CCN(C(=O)CCS(=O)(=O)c2ccc3c(c2)CCN3C(=O)CC)CC1,-9,-1.4,4,-2,-0.4,-2,-1.0,6,2,i
O=S(=O)(c1ccc2nc(-c3ccccc3)[nH]c2c1)N1CCN(c2cccc(Cl)c2)CC1,25,0.2,x,x,x,2,x,-1,7,x
COc1ccc(CNC(=O)C(C)Sc2nc3ccccc3c(=O)n2CC2CCCO2)cc1 (stereo not drawn),x,x,-2,6,0.9,6,1.3,x,-5,i
Cn1c(=O)c2[nH]c(-c3ccc(S(=O)(=O)O)cc3)nc2n(C)c1=O,7,-0.9,x,x,x,1,8.2,-5,0,i
CN1CCN(c2ccccc2NC(=O)c2cccs2)CC1,2,-1.4,-2,-2,0.7,5,0.9,-6,x,i
O=C(CCC(=O)c1ccc(Cl)cc1)OCc1nc2ccsc2c(=O)[nH]1,1,1.9,0,7,-1.2,-3,5.3,4,x,i
O=C(CSc1nnc(-c2ccc(Cl)cc2)n1Cc1ccco1)c1cccs1,-9,-0.5,x,x,x,16,x,6,-4,x
COc1ccccc1CNC(=O)C(CCSC)NC(=O)C1CCC(C)CC1 (stereo not drawn),-1,-1.6,x,x,x,-4,x,-27,0,x
COc1ccc(CCN2C(=NC(=O)C(C)C)SC3CS(=O)(=O)CC32)cc1 (stereo not drawn),5,4.1,11,13,-0.3,-1,-3.6,4,-2,i
COc1ccccc1-c1c(-c2ccc(O)cc2O)n[nH]c1C(F)(F)F,10,2.1,-15,-3,0.3,97*,-10,-7,65,i
O=C(Nc1ccc(O)cc1)C1CCCO1 (stereo not drawn),-9,-1.3,x,x,x,99*,x,-7,-5,x
CC(C)C[C@@H](CN=[N+]=[N-])N1CCN(C)CCC1=O,-12,-0.5,17,10,-5.9,-1,-7.5,-15,0,i
O=C(O)/C=C/C(=O)c1ccc2c(c1)NC(=O)CO2,-16,1.6,21,19,1.1,17,-7.0,3,-2,i

# Some of these compounds in order of their number in ALR inh, smallest number first.
Molecule	RanGTP-Impb inh	Ecoli rRNA inh	Ecoli rRNA inh OD600	Ecoli rRNA inh RFP	ALR inh	MLL AF4-AF9 inh	FGF22 binding
CC(C)C[C@@H](CN=[N+]=[N-])N1CCN(C)CCC1=O	-0.5	17	10	-5.9	-1	-7.5	i
Cc1ccc(C)c(NC(=O)CSc2ncnc3nc[nH]c23)c1	-0.7	7	3	-7.7	1	-6.6	i
CCN(CC)S(=O)(=O)c1ccc(OC)c(N)c1	-2.3	16	15	-1.8	8	0.6	i

# The list continues:
SMILES,T cruzi repl,RanGTP-Impb inh,Ecoli rRNA inh,Ecoli rRNA inh OD600,Ecoli rRNA inh RFP,ALR inh,MLL AF4-AF9 inh,Calb FLC,Beta apoptosis,FGF22 binding
O=C(Cc1ccccc1)N/N=C/c1cccs1,-3,2.6,x,x,x,-4,x,-4,2,x
Cc1ccc(-c2ccc(SCC(=O)NC3CCCC3)nn2)cc1,2,2.9,-2,14,3.8,-2,0.5,-5,2,i
CCOc1cc(/C=N/NC(=O)Cn2nc([N+](=O)[O-])cc2C)cc(Br)c1OCc1ccccc1F,37,-5.1,x,x,x,-6,x,-3,-4,x
O=C(COc1ccc(Cl)cc1)N(Cc1ccccc1)c1nc(-c2ccccc2)cs1,8,0.0,x,x,x,-1,x,-16,4,x
O=C(NC(=O)N1CCCCC1)c1ccccc1,-1,-0.8,19,7,0.1,-20,-2.2,28,-5,i
CCCCN(C)c1nc(-c2ccco2)c2c(c1C#N)CC(C)(C)OC2,-3,u,6,3,1.3,12,-1.4,-1,1,i
COc1ccc(NC2=C(NC(C)=O)C(=O)c3ccccc3C2=O)cc1,-4,-0.5,-7,-16,4.6,-29,9.5,18,7,i
O=C(O)CCC(=O)Nc1ccc(NC(=O)c2ccc(Cl)cc2Cl)c(Cl)c1,1,6.2,4,2,2.6,-1,-3.2,-3,-5,i
COCCN(Cc1ccco1)C(=O)Cn1ncc2c(=O)oc3ccccc3c21,-7,2.2,-20,-33,-5.1,x,-0.2,-3,-2,i
CCOc1cc(/C=C2/C(=O)N(c3ccccc3)N=C2C)ccc1OC(=O)c1ccco1,9,-5.4,x,x,x,-10,x,1,-6,x
CC(=O)c1ccc(N2CCN(C(=O)COc3ccc(F)cc3)CC2)c(F)c1,1,-0.9,x,x,x,x,x,-7,6,x
CC1CCCN(Cc2nc3c(c(=O)n(C)c(=O)n3C)n2CC(N)=O)C1 (stereo not drawn),7,2.4,x,x,x,-2,x,0,-6,x
CC1CC(C)CN(CC(O)COCc2ccccc2)C1 (stereo not drawn),12,-0.2,-2,8,-0.1,x,0.2,-1,-4,i
c1ccc(CN2CCN(c3nc(-c4ccccn4)nc4ccccc34)CC2)cc1,-11,-3.8,x,x,x,-6,x,-8,x,x
COc1ccc(-c2nsc3c(N4CCN(S(=O)(=O)c5ccccc5F)CC4)ncnc23)cc1,21,2.7,x,x,x,-6,x,16,5,x
COC(=O)c1nnn(-c2nonc2N)c1CSc1nc2ccccc2s1,7,2.4,x,x,x,-2,x,1,-3,x
COc1ccc(C2C(C#N)=C(N)Oc3cc(O)ccc32)cc1Cl (stereo not drawn),7,59*,-25,-28,-1.3,-10,1.8,-2,7,i
COC(=O)C1(C(C[N+](=O)[O-])c2ccc(C)cc2)C(=O)NCC1c1ccco1 (stereo not drawn),-3,-1.0,-15,-11,4.7,-4,6.7,0,-6,i
CCOC(=O)N1CCN(C(=O)c2ccc3c(c2)N=C(C)c2cc(Cl)ccc2S3)CC1,-6,6.0,-8,-16,2.2,-26,3.8,3,6,i
